ClpP mod = qHTS Assay for Activators of ClpP; purified B. subtilis ClpP, FRET peptide cleavage, 20 min; actives 1.9% (n = 340,000); Potency, µM (series often up to 57.5 µM), inactives show at the highest dose activity change, negative = active; ATP-dependent Clp protease proteolytic subunit (Bacillus subtilis (strain 168)), P80244; active = well fitted falling curve with a large enough effect; inconclusive = small, poorly fitted or top-dose-only effect; inactive = no such curve, though single readings can be large or run the other way; note: potency is the fitted concentration of half-maximal effect; the source files actives as falling curves though it sought activators and does not explain the sign; nearly all actives have a fitted effect of over 65% in size; many hits overshoot -100%
Target sequence (P80244 whole entry, looked up): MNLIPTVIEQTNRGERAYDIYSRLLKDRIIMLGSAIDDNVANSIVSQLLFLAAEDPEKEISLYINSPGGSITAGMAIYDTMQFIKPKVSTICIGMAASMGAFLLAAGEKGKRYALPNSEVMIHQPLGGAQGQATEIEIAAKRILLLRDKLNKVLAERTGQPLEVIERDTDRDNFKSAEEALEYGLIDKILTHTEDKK
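Buffer: 100 mM Tris/HCl pH8, 100 mM KCl, 0.05% low protease BSA, 2.5% glycerol, 0.01% Tween-20. ClpP 10 microg/mL final; 20 min RT; delta FRET normalized to ADEP and DMSO controls.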
TRPML1 inh = blocks the human TRPML1 channel | Q9GZU1 | AID 624415 | activity change, negative = inhibition, % (no concentration beside the values) | TRPML1-inducible cells, Ca2+ dye fluorescence, FDSS; stronger effect = lower value; inhibition of EC80 agonist-evoked calcium signal | actives 0.02% (n = 390,000); in the data active means activity change below about -50%; inconclusive means about -30% to -50%; inactive means above about -30%;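 note: stimulus is agonist 54-4 at its EC80 concentration; % is set by controls: 0 for no effect and ±100 for the full control effect; compound concentration not given in the record; the text of the record puts the active cut at -80%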
Target sequence (Q9GZU1 whole entry, looked up): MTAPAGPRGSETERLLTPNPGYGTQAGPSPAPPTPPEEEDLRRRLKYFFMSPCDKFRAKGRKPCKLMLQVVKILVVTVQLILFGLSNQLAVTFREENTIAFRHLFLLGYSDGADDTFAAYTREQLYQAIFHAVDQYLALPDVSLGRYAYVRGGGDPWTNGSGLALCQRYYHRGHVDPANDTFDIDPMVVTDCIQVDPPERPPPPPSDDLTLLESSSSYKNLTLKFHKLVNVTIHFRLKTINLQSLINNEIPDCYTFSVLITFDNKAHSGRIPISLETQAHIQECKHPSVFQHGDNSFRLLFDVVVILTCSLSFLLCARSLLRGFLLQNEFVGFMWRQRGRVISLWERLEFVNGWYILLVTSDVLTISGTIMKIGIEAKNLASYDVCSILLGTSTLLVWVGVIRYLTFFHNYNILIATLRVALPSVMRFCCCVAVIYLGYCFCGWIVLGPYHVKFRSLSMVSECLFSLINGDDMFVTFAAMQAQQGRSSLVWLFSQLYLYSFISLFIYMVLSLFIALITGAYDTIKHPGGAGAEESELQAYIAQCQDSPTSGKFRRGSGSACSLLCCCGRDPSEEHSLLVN
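TRPML1-DL cells, Tet-induced overnight (~16 h, 37 °C) at 1,500 cells/well, were loaded with Ca8 no-wash dye plus quencher for 45-90 min at room temperature. Compounds were pinned during FDSS kinetic reading; agonist 54-4 at EC80 (4 uM final) then added.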
TRPML1 agonist = activates the human TRPML1 channel; actives 0.12% (n = 410,000); AID 624414; TRPML1-expressing cells, Ca2+ dye fluorescence, FDSS; host cell line not named in the record; reference of the full effect not given here; Q9GZU1; activation, % (no concentration beside the values); in the data active = activation above about 50%; inconclusive = about 30% to 50%; inactive = below about 30%; note: 0% is about no effect; the text of the record puts the active cut at 80%
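Kinetic FDSS Ca2+ read in Tet-induced TRPML1-DL cells (ABD Ca8 dye plus quencher, 45-90 min RT loading): baseline, then compound, then 110 s agonist window; EC80 agonist 54-4 at 4uM final added afterwards for a 110 s antagonist window.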
gsp ag = agonists of gsp mutant (McCune-Albright syndrome); gsp mutant cells, cAMP HTRF, 30 min; control for the full effect not named in the record; Potency, µM (doses to about 76.9 µM), for inactives: at the highest dose activation (cAMP increase), hits mostly activators; actives 0.13% (n = 340,000); active = well fitted activation curve with a large enough effect; inconclusive = small, poorly fitted or top-dose-only effect, or another doubt; inactive = no such curve, though single readings can be large or run the other way; cell line not stated here;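 note: phosphodiesterase inhibitor Ro 20-1724 added with compounds to block cAMP breakdown; potency is the fitted concentration of half-maximal effect; nearly all actives have a fitted effect of over 60% in size; about a fifth of the inactives were tested at one dose only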
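Cells in DMEM/10% FBS with G418 were pretreated with compounds in DMSO plus […] (300 uM stock) for 30 min at 37C. cAMP was measured by HTRF (cAMP-d2 plus anti-cAMP antibody-K) after 30 min at room temperature.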
Menin-MLL FL inh = menin-MLL binding inhibition, fluorescein peptide. Fluorescence polarization, fluorescein-MLL peptide displacement from menin. FP activity change, % at 61.4 µM. 290,000 tested, under 10 active. AID 1766; inconclusive = falling polarisation curve, or a change in total fluorescence; inactive = total fluorescence flat and polarisation flat or rising; no compound was filed as active; the % refers to the polarisation; negative = inhibition;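 note: % of control where 0% means no effect; inhibitors lower the polarisation; unlabelled MLL peptide was the positive control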
gsp antagonist = antagonists of gsp mutant (McCune-Albright syndrome); gsp-mutant cells, cAMP HTRF, 30 min; control for the full effect not named in the record; Potency, µM (doses to about 76.9 µM), without a hit: at the top dose activity change, negative = inhibition, hits mostly inhibitors; actives 0.4% (n = 340,000); active = falling curve of any shape with a large fitted effect; inconclusive = falling curve, mostly with a smaller effect; inactive = flat or rising curve; cell line not stated here;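 note: intracellular cAMP measured with PDE inhibitor Ro 20-1724 present during compound exposure; potency is the fitted concentration of half-maximal effect; % is set by controls: 0 for no effect and ±100 for the full control effect; nearly all actives have a fitted effect of over 65% in size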
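G418-selected cells were plated in DMEM/10% FBS for 16-24 h at 37C, then treated with compounds plus the PDE inhibitor […] (300 uM solution added) for 30 min at 37C. Intracellular cAMP was measured by HTRF after 30 min lysis at room temperature.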
* = called active by the depositor; ? = inconclusive; / = no result given; [ ] = remark or other dose. Compounds as they come; any-hit rate near 2.1%.

SMILES | ClpP mod | TRPML1 inh | TRPML1 agonist | gsp ag | Menin-MLL FL inh | gsp antagonist
CS(=O)(=O)c1ccc(Cl)c(NC(=O)c2ccc3ccccc3c2)c1 | 2.7% | -2 | -0.1 | 1%[15.4 µM] | 4.2 | 0%
O=C(Oc1ccc2ccccc2c1)c1ccco1 | 2.7% | 33 | 1.9 | -8% | 6.4 | 6%
CC(C)Sc1nc2sc3c(c2c2nnc(SCC(=O)NCc4ccco4)n12)CCCC3 | 32µM* | 7 | 0.0 | -12% | 8.0 | ?
COc1ccccc1NC(=O)CCCCCN1C(=O)c2cccc([N+](=O)[O-])c2C1=O | -0.4% | -2 | 0.2 | 27% | -2.8 | -23%
CC(c1ccon1)N(C)C(=O)CCc1nnc(C2(c3ccc(Cl)cc3)CCC2)o1 (configuration not stated) | -3.0% | 19 | 0.6 | 3% | 1.9 | -4%
COc1ccccc1NC(=O)c1sc2nc3n(c(=O)c2c1C)N=C(c1cccc(Br)c1)CS3 | 0.9% | 2 | 0.3 | / | / | /
Cc1ccc(NC(=S)N2CCOCC2)cc1 | 0.4% | 33 | 0.4 | -25% | / | -3%
Cn1c(=O)c2c(nc(SCC(=O)Nc3ccccc3F)n2Cc2ccc(Cl)cc2)n(C)c1=O | 0.1% | 10 | 4.8 | / | / | /
COc1ccccc1-n1c(CNc2c(C)cccc2C)nnc1SCC(=O)N1CCOCC1 | 0.4% | 0 | 0.2 | ? | -0.5 | -10%
O=C(NCc1ccccn1)C1CCCN(S(=O)(=O)c2ccc(Br)cc2)C1 (configuration not stated) | -1.2% | 5 | 0.3 | -38%[inhibitor] | 2.3 | -4%
O=S(=O)(c1ccccc1)c1cnc(-c2cccnc2)nc1-c1ccc(Cl)cc1Cl | -5.0% | 77 | 3.7 | 9% | -0.8 | ?
CCc1onc(C)c1C(=O)O | / | 10 | -0.5 | -10% | -1.1 | 7%
CCOC(=O)CSc1nc2c([nH]c3ccccc32)c(=O)n1C | 1.4% | -8 | 0.5 | -24% | 4.1 | -1%
O=C(/C=C/c1ccccc1Cl)N1CCN(c2ncccn2)CC1 | -2.7% | -10 | 1.2 | -16% | 5.7 | -9%
COc1cc(C(=S)N2CCOCC2)ccc1OS(=O)(=O)c1ccc(C)cc1 | -0.2% | 5 | 3.4 | -18% | -0.3 | 0%
CCOC(=O)c1[nH]c(C)c(CCC(=O)NCc2ccc(N(C)C)cc2)c1C | -1.1% | -10 | -0.7 | / | / | /
COC(=O)c1c(Oc2ccc(Br)cc2)nnc(-c2ccccc2)c1-c1ccccc1 | -0.1% | 33 | 0.8 | / | / | /
O=C(N/N=C/c1cccc2ccccc12)c1cc2ccccc2o1 | -16% | -22 | -0.2 | 5% | 0.4 | -14%
CC(C)(C)OC(=O)NC(Cc1ccccc1)C(=O)N1CCC(C(=O)NCC(=O)Nc2ccc(F)cc2)CC1 (configuration not stated) | -2.6% | -10 | 1.1 | -15% | / | -1%
CCN(c1ccccc1)S(=O)(=O)c1ccc(N)cc1 | 1.7% | -9 | -0.2 | -23% | -1.6 | -3%

Gathered by group: the compounds so far containing a thiophene ring, fused or not (2)
SMILES | ClpP mod | TRPML1 inh | TRPML1 agonist | gsp ag | Menin-MLL FL inh | gsp antagonist
CC(C)Sc1nc2sc3c(c2c2nnc(SCC(=O)NCc4ccco4)n12)CCCC3 | 32µM* | 7 | 0.0 | -12% | 8.0 | ?
COc1ccccc1NC(=O)c1sc2nc3n(c(=O)c2c1C)N=C(c1cccc(Br)c1)CS3 | 0.9% | 2 | 0.3 | / | / | /

New compounds follow.
SMILES | ClpP mod | TRPML1 inh | TRPML1 agonist | gsp ag | Menin-MLL FL inh | gsp antagonist
CCCn1c(CCC(=O)Nc2cc(C(=O)OC)cc(C(=O)OC)c2)nc2cccnc21 | 0.7% | -15 | 2.4 | / | / | /
Cc1ccc(S(=O)(=O)N2CCC[C@H]2C(=O)OCc2cc(=O)oc3cc(C)ccc23)cc1 | / | -14 | -1.3 | -17% | / | -6%
O=C(CCNC(=O)c1ccc([N+](=O)[O-])cc1)Nc1ccccc1N1CCCCC1 | / | -2 | 1.3 | 2%[15.4 µM] | / | -5%
CCn1cc(C(=O)NCc2ccccn2)c(=O)c2cc(F)c(N3CCN(C)CC3)cc21 | ? | -6 | -0.4 | -21% | 4.2 | 12%
Cc1sc(Cc2nc(O)cs2)nc1-c1ccccc1 | / | 16 | 0.3 | 37%[15.4 µM] | ? | -1%
CCNc1ccc(C(=O)OCC(=O)N2c3ccccc3NC(=O)C2(C)C)cc1[N+](=O)[O-] | -0.7% | 5 | 0.7 | 23%[15.4 µM] | 4.9 | -17%
O=C(O)c1ccc2c(c1)CC(c1ccccc1)OC2=O (configuration not stated) | -1.0% | 8 | -0.1 | -39%[inhibitor] | 0.5 | -14%
O=c1c2c(nc3cc(-c4cccc(F)c4)[nH]n13)CCC2 | / | 14 | -0.1 | 13%[15.4 µM] | -1.1 | -2%
CN(C(=O)COC(=O)c1cncc(Br)c1)C1CCCCC1 | -3.3% | -13 | -0.2 | -2%[15.4 µM] | / | 9%
CCOC(=O)N1CCN(C(=O)c2ccc(CNS(=O)(=O)c3ccc(NC(C)=O)cc3)cc2)CC1 | 0.1% | 42 | -0.2 | -37%[inhibitor] | / | 9%
CSc1ccc(CNC(=O)Cc2ccc(NC(=O)C3=C(C)OCCS3)cc2)cc1 | 1.2% | -17 | 2.7 | 1% | -1.4 | -9%
CN1c2ccc(Cl)cc2C(=O)NC1c1ccc([N+](=O)[O-])s1 (configuration not stated) | / | 49 | 0.3 | 4%[15.4 µM] | 6.0 | -12%
Fc1ccccc1OCCCCCCN1CCCC1 | -0.3% | -8 | 2.4 | -17% | 5.9 | 3%
Cc1ccc(SCC(=O)Nc2ccc(O)c(-c3nc4cc(C)ccc4o3)c2)cc1 | -2.3% | ? | -0.1 | / | / | /
CC(C)C(c1nnnn1Cc1ccccc1)N1CCc2ccccc2C1 (configuration not stated) | -11% | -6 | 0.6 | 8% | 1.8 | 3%
O=C(CCc1nc2ccccc2c(=O)[nH]1)Nc1cc(C(F)(F)F)ccc1N1CCOCC1 | -6.4% | 8 | 0.1 | -10% | / | 19%
Cc1ccc(S(=O)(=O)N2CCN(C(=O)Cn3cnc4c3c(=O)n(C)c(=O)n4C)CC2)cc1C | -1.6% | 6 | 1.5 | 7% | / | -10%
Cc1ncoc1C(=O)N1CCCC(C(=O)c2cccc(C(F)(F)F)c2)C1 (configuration not stated) | -0.1% | / | / | 5% | -0.9 | 9%
CCOC(=O)COn1c(=O)c(-c2ccc(F)cc2)[n+]([O-])c2ccccc21 | -3.5% | 39 | 3.5 | ? | 0.0 | 11%
O=C(NCc1ccccc1Cl)c1ccc(CSCc2ccccc2Cl)o1 | 1.5% | 69 | 4.8 | / | / | /
COc1cccc(CNC(=O)CCC2CCCN(C(=O)c3cc(C)on3)C2)c1 (configuration not stated) | -0.7% | 7 | -0.6 | -6% | -0.8 | -6%
CCOc1ccc(N2C(=O)/C(=C/c3cccs3)N(CC(=O)OC)C2=S)cc1 | 1.0% | 9 | 0.7 | ? | 1.3 | 1%
O=C(O)CCC(=O)N1CC=C(c2ccccc2)CC1 | -16% | -9 | 0.4 | ? | 0.0 | -1%
Cc1ccc(-c2cn3ccc(C)cc3n2)cc1 | 0.1% | 12 | 0.8 | / | / | /
Cc1cccc(NC(=O)C2CCN(S(=O)(=O)c3cccc4cccnc34)CC2)n1 | -2.2% | -5 | 0.3 | 10% | 0.1 | -10%
N#C/C(=C\Nc1ccc(Cl)cn1)S(=O)(=O)c1ccccc1 | -3.5% | 12 | 0.3 | -1%[15.4 µM] | 4.1 | -3%
CCCn1c(=N)n(CC(=O)O)c2ccccc21 | -6.4% | -8 | -0.4 | -3% | / | 4%
S=C(NCCc1ccccc1)N1CCn2cccc2C1c1ccncc1 (configuration not stated) | 0.6% | 3 | 0.4 | 20%[15.4 µM] | 0.8 | -19%
N#CCCN1CCN(CCC#N)C1=S | 2.0% | -8 | 0.5 | -15% | / | -6%
Cc1ccccc1NC(=O)CSC1=NCCN1 | -2.2% | -10 | -0.2 | -19% | 3.9 | 8%
O=C(CSc1ccc(Cl)cc1)Nc1ccc(NC(=O)c2ccco2)cc1 | -3.8% | 12 | 0.3 | -42%[inhibitor] | / | 10%
COC(=O)C1(Cc2cc(-c3ccc([N+](=O)[O-])cc3)no2)CCN(C(=O)OC(C)(C)C)CC1 | 2.0% | 45 | 1.9 | -27% | / | -26%
CCOc1ccc(CN2CCN(CC3CC3)CC2CCO)cc1 (configuration not stated) | -1.0% | / | / | -5% | 0.2 | 6%
CCN(C(=O)Cn1c(=O)n(-c2ccccc2)c(=O)c2ccc(C(=O)NCc3ccc4c(c3)OCO4)cc21)c1cccc(C)c1 | -8.7% | 15 | 1.1 | / | / | /
O=C(COC(=O)C1CCN(S(=O)(=O)c2ccc3c(c2)OCCO3)CC1)Nc1cccc2ccccc12 | 0.7% | 2 | -0.4 | -39%[inhibitor] | 4.3 | -4%
CN(C(=O)CSc1nc2[nH]ncc2c(=O)[nH]1)c1ccccc1 | -2.4% | -12 | 0.0 | -7%[15.4 µM] | / | 10%
OC(COc1cccc2ccccc12)CN1CCCC1 (configuration not stated) | -6.9% | 1 | -0.8 | 7% | 0.9 | 9%
Cc1ccc(-c2nc(CS(=O)CC(=O)NCCc3ccc(Cl)cc3)c(C)o2)cc1 (configuration not stated) | -11% | -14 | -0.9 | / | / | /
Cc1ccc(-c2[nH]c(-c3ccc(C(=O)O)cc3)nc2-c2ccccc2)cc1 | -3.1% | 10 | -0.1 | 0% | 5.6 | ?
CCOC(=O)C1=C(C)NC(=O)NC1c1c(C)nn(-c2ccccc2)c1Cl (configuration not stated) | 8.6% | -13 | -0.4 | 26% | 1.9 | -7%
Cc1ccc(CN(C)C(=O)C2CCCN2C(=O)c2cccs2)o1 (configuration not stated) | -2.4% | -5 | 0.3 | -1% | -0.1 | 4%
CCCCSc1nnc([C@H](CC(C)C)NC(=O)OC(C)(C)C)o1 | -0.9% | 13 | 0.0 | -34%[inhibitor] | 1.9 | 3%
COc1ccc(C2=NN(c3ccc(C(=O)O)cc3)C(c3ccc(OC)c(OC)c3)C2)cc1 (configuration not stated) | / | 10 | -0.4 | ? | / | 12%
COC(=O)c1cc(S(=O)(=O)NCCc2ccc(C)cc2)c[nH]1 | -8.4% | -2 | -0.6 | -2% | -3.3 | -2%
O=C(Nc1ccc([N+](=O)[O-])cc1)C1CC12CCC2 (configuration not stated) | / | -19 | 0.0 | 6%[15.4 µM] | -0.7 | 10%
